# rRNA inh HTS: inhibitors of bacterial rRNA selective over humanized ribosomes; E. coli WT GFP vs humanized-ribosome RFP mutants, fluorescence, 24 h; hits give low values; DMSO median 0, no signal -100; GFP signal change (wild-type ribosome), % (no concentration beside the values); hit rate 1.6% among 350,000; AID 720706;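 active means significant combined selectivity score with lowered wild-type GFP, culture density cut under 30%, mutant RFP and density less affected; inactive means any of these conditions unmet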; further: one replicate is shown; some compounds called inactive have numbers as strong as hits
# AF4-AF9 inh: inhibitors of human MLL-AF4/AF9 interaction. P42568. AlphaScreen, biotin-AF4 peptide binding to FLAG-AF9. inhibition, % at 10 µM. hit rate 0.47% among 350,000;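 active means every replicate reaching a set inhibition limit, whatever the replicate mean, cut at about 25% in these data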;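 further: 0% = plate neutral control median and 100% = total signal loss; the record names both 10 and 1 µM as test concentration; the first replicate is given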
# Target sequence (P42568 whole entry, looked up): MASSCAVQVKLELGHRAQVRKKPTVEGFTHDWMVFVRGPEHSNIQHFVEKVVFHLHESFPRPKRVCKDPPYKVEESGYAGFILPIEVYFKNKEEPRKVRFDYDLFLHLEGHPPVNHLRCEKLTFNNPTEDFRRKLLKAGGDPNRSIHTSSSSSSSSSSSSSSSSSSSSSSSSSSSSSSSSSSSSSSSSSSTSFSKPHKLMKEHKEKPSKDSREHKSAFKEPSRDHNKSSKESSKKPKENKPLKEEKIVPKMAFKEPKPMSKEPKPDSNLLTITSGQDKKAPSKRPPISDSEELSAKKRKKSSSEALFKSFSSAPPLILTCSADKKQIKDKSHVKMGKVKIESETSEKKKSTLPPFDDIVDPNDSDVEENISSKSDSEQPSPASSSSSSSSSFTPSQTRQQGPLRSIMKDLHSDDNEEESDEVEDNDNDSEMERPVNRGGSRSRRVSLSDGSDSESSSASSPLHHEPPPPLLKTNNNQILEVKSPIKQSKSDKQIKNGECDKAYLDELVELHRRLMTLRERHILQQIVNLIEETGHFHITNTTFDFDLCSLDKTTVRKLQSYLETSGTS
# FGF22 binding: binders of recombinant human FGF22 by thermal shift. Q9HCT0. SYPRO orange fluorescence; percent of sucrose octasulfate shift, DMSO zero. calls only at 9.99 µM. hit rate 1.5% among 340,000;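 active means melting point raised past a set limit in the mean and every replicate; three in four hits are not shown here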
# Target sequence (Q9HCT0 whole entry, looked up): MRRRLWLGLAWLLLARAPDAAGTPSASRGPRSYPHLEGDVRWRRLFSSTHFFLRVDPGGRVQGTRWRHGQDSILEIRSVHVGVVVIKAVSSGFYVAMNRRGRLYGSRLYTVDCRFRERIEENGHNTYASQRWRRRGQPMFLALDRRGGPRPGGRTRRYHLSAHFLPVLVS
# T cruzi repl: blocks replication of Trypanosoma cruzi. hit rate 1.4% among 300,000. T. cruzi beta-gal in NIH3T3, luminescence, 90 h. inhibition, % (concentration not given with the values). AID 1885;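 active means mean inhibition across valid replicates above about 55%, limit read from the data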;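 further: signal also drops with host cell toxicity which is not excluded here; 0% = plate median of DMSO wells and 100% = zero luminescence signal; higher percent means less beta-gal luminescence so fewer parasites; stock transfer was 50 nL into about 50 µL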
# E coli growth: E. coli growth inhibition | Escherichia coli growth, OD600, 23 h; hits give low values | OD600 absorbance (test concentration not listed) | hit rate 0.21% among 330,000 | AID 1053175;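 active means OD600 absorbance below the run mean of sample wells minus 3.6 SD, in any replicate, cut at about 0.56 in these data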;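 further: stock transfer was 300 nL into about 60 µL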
# UCH37 inh: human UCH37 deubiquitinating enzyme inhibition | hit rate 0.33% among 330,000 | Q9Y5K5 | purified proteasome/UCH37, Ub-AMC cleavage fluorescence | inhibition, % (concentration not given with the values);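 active means mean of two replicates above 20%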;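 further: 0% = compound-free wells with enzyme and 100% = wells lacking proteasome; stock transfer was 100 nL into about 20 µL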
# Target sequence (Q9Y5K5 whole entry, looked up): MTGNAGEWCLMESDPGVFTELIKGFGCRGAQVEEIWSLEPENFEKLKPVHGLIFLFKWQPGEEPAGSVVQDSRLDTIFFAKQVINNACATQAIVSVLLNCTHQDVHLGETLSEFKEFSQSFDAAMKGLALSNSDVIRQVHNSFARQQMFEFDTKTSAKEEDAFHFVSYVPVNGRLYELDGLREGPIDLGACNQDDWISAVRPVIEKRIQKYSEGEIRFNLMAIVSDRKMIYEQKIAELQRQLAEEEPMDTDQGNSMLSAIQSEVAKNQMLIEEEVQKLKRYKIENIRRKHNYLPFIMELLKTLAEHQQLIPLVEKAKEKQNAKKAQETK
#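 Material: Human UCH37 enzyme supplied as purified proteasome complex | Schedule: 30 min preincubation with enzyme, 25 min cleavage at room temperature | Detection: AMC fluorescence 355/460 nm | Measure: % inhibition of Ub-AMC cleavage fluorescence | Controls: Wells without proteasome as full block, compound-free enzyme plus substrate as uninhibited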
# Beta apoptosis: beta cell apoptosis inhibition; INS-1E cytokine-induced death, ATP luminescence, 48 h; percent of positive-control rescue, neutral wells zero; protection from apoptosis, % (test concentration not listed); hit rate 0.8% among 300,000; AID 435005;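 active means all replicates at 75% or more, or half of them and the mean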;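 further: 0% = cytokine-treated negative control wells and 100% = positive control rescue; higher means more ATP so stronger rescue from cytokine killing; wells of about 40 µL received 100 nL stock; the first replicate is given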
# A1 inh: inhibitors of the anti-apoptotic protein A1, read as caspase activation; caspase activation, % (test concentration not listed); MEF A1-2A-BIM cells, Caspase-Glo 3/7 luminescence, 3 h; percent of clofoctol response, vehicle zero; hit rate 0.066% among 330,000;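 active means over half of replicate activation scores above 10%, or exactly half above 10 with the replicate mean above 10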;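 further: wells of about 30 µL received 50 nL stock; many hits fall short of the cut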
# rRNA inh HTS OD600: recorded beside rRNA inh HTS, whose call it bears; OD600 change, %; measured here: OD600 growth;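 optical density of the mix in the first replicate; 0 = DMSO median and -100 = no signal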
# rRNA inh HTS RFP: second read-out of rRNA inh HTS, no call of its own (marks repeat the call); RFP signal change, %; measured here: RFP humanized mutant strains;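 first replicate; 0 = DMSO median and -100 = no signal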
# * marks the source's active call; other numbers are inactive results; i = inactive; · = no result given; + = active, no number. This is a subset. The share of hits here may be higher or lower than overall.
SMILES,rRNA inh HTS,rRNA inh HTS OD600,rRNA inh HTS RFP,AF4-AF9 inh,FGF22 binding,T cruzi repl,E coli growth,UCH37 inh,Beta apoptosis,A1 inh
CCCN(C(=O)c1cc2c(s1)CCC2)c1c(N)n(Cc2ccccc2)c(=O)[nH]c1=O,1,0,-5.6,-0.2,i,-2,0.71,-1.5,-10,-1.1
O=C1CN(S(=O)(=O)c2ccc(Cl)cc2)CC(=O)N1CCc1ccccc1,·,·,·,·,·,1,0.72,5.9,-4,-0.2
O=C(O)[C@H]1CCCC[C@H]1C(=O)NCCc1ccccc1,·,·,·,·,·,6,0.71,-0.7,0,2.6
Cn1c(SCc2cc([N+](=O)[O-])cc3c2OCOC3)nnc1-c1ccccn1,9,14,1.1,-6.0,i,0,0.72,3.2,-3,-0.3
COc1cc(S(=O)(=O)NCc2ccc3c(c2)OCO3)ccc1F,6,4,-0.2,-1.1,i,-8,0.64,1.8,-7,-0.4
CC(=O)c1ccc(Oc2cnccn2)cc1,17,19,-1.3,-0.6,i,-5,0.67,1.0,-1,-0.4
CCCOc1ccc(/C=C2/C(=O)ON=C2C)cc1Cl,-4,4,-1.1,-0.3,i,-5,0.66,5.2,-15,0.0
C(=C\c1ccccn1)/c1ccccn1,6,26,0.2,-28,i,-11,0.67,2.4,-12,-2.4
C=C(C)C(=O)Oc1ccc(N=Nc2ccc(C)cc2)ccc1=O,·,·,·,28*,i,·,0.67,3.9,·,·
COc1ccc(N(C(=O)COc2ccccc2)C2C=CS(=O)(=O)C2)c(OC)c1 (stereo not given),·,·,·,·,·,-8,0.67,0.9,-2,0.3
CCOCCCNC(=O)CCCC1=NS(=O)(=O)c2ccccc2N1,5,-6,4.0,-15,i,-19,0.69,1.6,-5,0.7
N#CCCN(C1CCCCC1)S(=O)(=O)CCOc1ccccc1,·,·,·,·,·,-6,0.74,4.3,-4,1.8
COc1ccc(NC(=O)C2CCCN(S(=O)(=O)c3cccc4cccnc34)C2)cc1OC (stereo not given),-11,-16,0.6,0.4,i,-7,0.73,4.3,0,0.3
CC(=O)Nc1ccc(C(=O)N/N=C/c2cc(Br)cc(Br)c2O)cc1,-12,-12,2.0,1.1,+,-35,·,·,37,-0.3
Cc1c(Br)c([N+](=O)[O-])nn1C(C)C(=O)NCc1cccnc1 (stereo not given),·,·,·,·,·,28,0.71,0.3,-5,0.4
O=C(NNC(=O)c1cccc(C(F)(F)F)c1)c1ccc(-n2cnnn2)cc1,2,11,-0.5,-4.4,i,·,0.68,2.4,4,0.1
Cc1c(C(=O)OC2CCCC2C)[nH]c2c1C(=O)CCC2 (stereo not given),5,-42,5.5,5.5,i,0,0.74,1.3,9,-2.1
O=C(O)c1ccc(S(=O)(=O)N(Cc2ccc(F)cc2)C2CCCCC2)cc1,-22*,-12*,-4.9*,2.0,i,-16,0.65,1.9,3,0.0
CCC(C)NC(=S)N(CCc1ccccc1)Cc1cc2cc(OC)c(OC)cc2[nH]c1=O (stereo not given),-3,-4,0.1,4.3,i,28,0.62,-33,-3,-0.4
COc1cc(-c2nc(-c3ccc(NC(=O)c4ccc(Br)o4)cc3)no2)cc(OC)c1OC,·,·,·,·,·,-4,0.7,-6.4,58,-1.1
CC(C)(C)C1CCc2[nH]nc(C(=O)O)c2C1 (stereo not given),·,·,·,·,·,·,0.7,5.9,-4,-0.1
O=C1c2ccccc2NC(c2ccc(F)cc2)N1Cc1ccccc1 (stereo not given),-10,-24,-18,-1.8,i,18,0.64,-133,·,0.6
CCOC(=O)c1sc(N(Cc2ccccc2)C(=O)COC(=O)c2cnccn2)nc1C,-9,-20,9.5,1.0,i,-2,0.73,3.6,·,0.3
Oc1ccc(-c2csc(-c3cccnc3)n2)cc1O,-17,-20,-17,-0.1,i,-14,0.59,1.7,-11,-7.1
CC1C(=O)C(C)C(c2ccco2)NC1c1ccco1 (stereo not given),·,·,·,·,·,-13,0.75,3.1,-1,0.0
COc1ccc(NC(=O)CSc2nc(=O)n(CCN(C)C)c3c2CCCC3)cc1OC,8,6,2.1,-35,i,-3,0.62,2.6,·,-1.3
O=C(Nc1c(Cl)ccc2nsnc12)c1ccc([N+](=O)[O-])o1,4,3,-4.3,6.6,i,-2,·,·,-19,-0.4
COc1cc(S(=O)(=O)N(Cc2ccccc2)Cc2ccccn2)ccc1-n1cnnn1,·,·,·,·,·,24,0.59,-0.5,·,-0.9
Cc1ccc(S(=O)(=O)n2cnc3cc([N+](=O)[O-])ccc32)c(C)c1C,·,·,·,·,·,-1,0.72,3.7,-1,0.4
CC(C)(O[C@@H]1O[C@H](CO)[C@@H](O)[C@H](O)[C@H]1O)[C@H]1Cc2cc3ccc(=O)oc3cc2O1,8,10,2.8,-1.6,i,-17,·,-219,-11,-0.4
CCN1CCN(Cc2nc3c(c(=O)n(C)c(=O)n3C)n2CC(=O)c2ccccc2)CC1,8,6,-2.5,-3.7,i,0,0.71,-1.1,9,-0.2
O=C(CC1SC2=NCCN2C1=O)Nc1ccc(Br)cc1 (stereo not given),2,8,-1.2,·,·,-17,0.68,0.6,-1,0.2
NC(=O)C1Cc2ccccc2CN1C(=O)c1cccc(Oc2ccccc2)c1 (stereo not given),-6,-21,-0.9,3.1,i,17,0.68,6.9,-4,-0.6
CSc1nnc(C2CCCN2)n1C (stereo not given),·,·,·,·,·,-15,0.67,-0.3,-1,0.5
COc1ccc(NC(=O)CCC(=O)OCc2ccc([N+](=O)[O-])cc2)cc1,2,1,-1.5,-4.2,i,-9,0.72,0.3,-11,1.3
COc1cc(OC)cc(C(=O)NC2CCSC2=O)c1 (stereo not given),·,·,·,·,·,-13,0.7,3.2,-3,-0.2
O=C(CC1CCCC1)Nc1cc(C(F)(F)F)ccc1-n1cncn1,1,-6,0.2,-0.4,i,·,0.64,1.3,-1,-0.4
O=C1C(Cl)=C(NC2CCCCC2)C(=O)N1c1ccc(Cl)cc1,·,·,·,·,·,-11,0.66,-0.9,-2,-0.3
Cc1occc1-c1nnc(SCC(=O)NC(=O)NC(C)C)n1N,·,·,·,·,·,-6,0.67,1.1,-8,-0.9
O=C(CN1C(=O)COc2ccc(S(=O)(=O)N3CCOCC3)cc21)NCc1ccccn1,5,2,-2.9,4.2,i,0,0.68,1.8,-6,-0.6
O=C(N/N=C/c1ccccn1)c1cc(-c2ccc3ccccc3c2)n[nH]1,-55,-77,-24,1.2,i,-36,·,·,29,-1.1
O=C(CSc1ccc(F)cc1)Nc1ccc(N2CCOCC2)cc1,-6,-9,-2.5,2.2,i,-2,0.68,2.4,3,0.2
O=C(C1CCN(S(=O)(=O)N2CCOCC2)CC1)N1CCc2ccccc21,·,·,·,·,·,-12,0.72,5.6,-3,0.5
CCOC(=O)C1CCN(C(=O)N(CC)CC)CC1,-1,5,-3.0,-1.6,i,-16,0.71,4.9,-8,0.5
COCCCNC(=O)CCc1nnc2ccc(N3CCC(C)CC3)nn12,4,9,0.4,-3.7,i,0,0.67,1.8,-6,0.2

# A second format for some results above:
Cc1occc1-c1nnc(SCC(=O)NC(=O)NC(C)C)n1N
  rRNA inh HTS: ·
  rRNA inh HTS OD600: ·
  rRNA inh HTS RFP: ·
  AF4-AF9 inh: ·
  FGF22 binding: ·
  T cruzi repl: -6
  E coli growth: 0.67
  UCH37 inh: 1.1
  Beta apoptosis: -8
  A1 inh: -0.9
O=C(CN1C(=O)COc2ccc(S(=O)(=O)N3CCOCC3)cc21)NCc1ccccn1
  rRNA inh HTS: 5
  rRNA inh HTS OD600: 2
  rRNA inh HTS RFP: -2.9
  AF4-AF9 inh: 4.2
  FGF22 binding: i
  T cruzi repl: 0
  E coli growth: 0.68
  UCH37 inh: 1.8
  Beta apoptosis: -6
  A1 inh: -0.6

# The listing continues:
SMILES,rRNA inh HTS,rRNA inh HTS OD600,rRNA inh HTS RFP,AF4-AF9 inh,FGF22 binding,T cruzi repl,E coli growth,UCH37 inh,Beta apoptosis,A1 inh
S=C(NCCCN1CCOCC1)Nc1ccc(N2CCOCC2)cc1,5,6,0.1,-0.5,i,37,0.64,2.8,0,-0.5
CCCCC[C@H]1CN(CCCC)C(=O)[C@@H]1CC(=O)NCc1ccccc1,13,9,15,2.5,i,10,·,2.3,-5,-0.5
Cc1ccc2c(=O)n3c(nc2c1)C(Cc1ccccc1)NC(=O)c1ccc(Cl)cc1-3 (stereo not given),2,-1,7.4,4.7,i,·,·,·,-3,0.3
COC(=O)C1CC(=O)c2ccsc2C1 (stereo not given),·,·,·,·,·,-11,·,-0.6,-1,0.1
Cc1ccc(-c2noc(CN3CCN(Cc4ccccc4)CC3)n2)cc1,·,·,·,·,·,30,0.7,-1.2,0,0.6
CCN1C(=O)N[C@H](c2ccc(Br)cc2)C(C(C)=O)=C1C,14,13,1.3,-2.4,i,31,·,-0.3,-3,1.6
COC(=O)c1ccc(/C=C/C(=O)c2ccc(OC)cc2)cc1,·,·,·,·,·,-16,0.66,1.6,-1,0.1
CC(=O)NCc1ccc(C(=O)CCl)s1,8,6,3.3,-4.9,i,56*,0.49*,6.8,-57,1.6
O=C(/C=C/c1ccc2c(c1)OCO2)c1ccc(O)cc1O,-65,-78,-19,6.9,i,·,0.68,6.1,·,·
CC#CC[N+](C)(C)CCCCCCCC,4,6,0.8,-2.4,i,-23,0.65,4.6,131*,-1.6
COc1ccc(NC(=O)c2sccc2SCC#N)cc1,·,·,·,·,·,-8,0.62,2.0,-7,-1.0
COc1ccccc1C(=O)C1CCCN(C(=O)c2snnc2C)C1 (stereo not given),5,3,-4.3,-1.3,i,-2,0.68,-1.6,1,2.3
O=C(CCS(=O)(=O)c1cccc2nonc12)Nc1cccc2c1CCCC2,·,·,·,·,·,-4,0.69,0.5,-8,0.4
COCCNc1nc(SCC(=O)N2CCN(c3ccccc3OC)CC2)nc2ccccc12,·,·,·,·,·,30,0.67,4.6,·,-0.9
Cc1ccc(C2(C(=O)N3CCC(n4nc(-c5ccccc5)oc4=O)CC3)CC2)cc1,·,·,·,·,·,19,0.72,-1.9,2,-0.2
CC1CCN(CC(=O)Nc2ccc(S(=O)(=O)N3C(C)CCCC3C)cc2)CC1 (stereo not given),14,7,4.0,-23,i,11,0.64,1.0,-2,0.6
O=C(c1ccccc1)c1c(-c2ccccc2)[nH]n(-c2ccccc2)c(=O)c1=O,-32,-40,-3.6,-2.1,i,-7,0.64,3.8,·,0.2
COc1cc(NC(=O)c2c(Cl)cnn2C)c(OC)cc1Cl,13,8,1.5,-1.3,i,11,0.7,-171,7,-1.1
Cc1cc(C)n(C(=O)CNC(=O)COc2ccccc2)n1,·,·,·,·,·,·,0.76,1.8,-6,0.1
O=C(Cc1c(F)cccc1Cl)Nc1ccc(S(=O)(=O)N2CCCC2)cc1,2,-2,-1.8,1.6,i,-8,0.69,-2.1,7,-1.8
COC(=O)c1ccc(C2N=C(c3cccs3)CC(c3ccccc3O)N2)cc1 (stereo not given),-18,-19,-6.7,4.6,i,3,0.69,0.9,21,-3.9
O=C(NC1CCCCC1)C1CCN(S(=O)(=O)c2cccc3nonc23)CC1,3,12,0.0,1.9,i,10,0.68,0.3,-3,0.2
COCCN(C(=O)CSc1nc2ccccc2c(=O)n1CCOC)c1c(N)n(Cc2ccccc2)c(=O)[nH]c1=O,6,-2,-5.6,-2.1,·,-3,0.65,4.4,-3,-0.3

# Source: PubChem
